Beta apoptosis = blocks beta cell apoptosis. INS-1E cytokine-induced death, ATP luminescence, 48 h; percent of positive-control rescue, neutral wells zero. protection from apoptosis, % (test concentration not listed). 300,000 compounds, 0.8% hits. AID 435005;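 active = all replicates at 75% or more, or half of them and the mean; inconclusive = half reach 75% but not the mean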;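 note: 0% = cytokine-treated negative control wells and 100% = positive control rescue; higher means more ATP so stronger rescue from cytokine killing; wells of about 40 µL received 100 nL stock; the first replicate is given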
FGF22 binding = FGF22 (human) thermal shift binding | AID 651658 | calls only at 9.99 µM | 340,000 compounds, 1.5% hits | recombinant FGF22 thermal shift, SYPRO orange fluorescence; percent of sucrose octasulfate shift, DMSO zero;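 active = melting point raised past a set limit in the mean and every replicate; inconclusive = no clear call; three in four hits are not shown here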
Target sequence (Q9HCT0 whole entry, looked up): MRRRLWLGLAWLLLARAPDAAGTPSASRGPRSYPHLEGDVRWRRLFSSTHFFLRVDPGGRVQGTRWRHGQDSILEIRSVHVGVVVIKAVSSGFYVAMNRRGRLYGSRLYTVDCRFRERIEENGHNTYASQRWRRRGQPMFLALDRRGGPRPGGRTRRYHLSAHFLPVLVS
RanGTP-Imp inh = inhibitors of RanGTP-importin-beta interaction, primary screen, biochemical, FRET, CFP-Ran, YFP-importin-beta, homogeneous; cell-free CFP-Ran/YFP-importin-beta FRET ratio; inhibition, % (concentration not given with the values); 300,000 compounds, 1.1% hits;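 active = most replicates above 15%; inconclusive = exactly half above 15%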;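 note: 0% = DMSO wells and 100% = Ran loaded with GDP instead of GTP; wells of about 40 µL received 100 nL stock; the first replicate is given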
Ecoli rRNA inh = inhibits bacterial ribosomal RNA function over humanized ribosomes; E. coli WT GFP vs humanized-ribosome RFP mutants, fluorescence, 24 h; hits give low values; DMSO median 0, no signal -100; GFP signal change (wild-type ribosome), % (no concentration beside the values); 350,000 compounds, 1.6% hits;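 active = significant combined selectivity score with lowered wild-type GFP, culture density cut under 30%, mutant RFP and density less affected; inactive = any of these conditions unmet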; note: one replicate is shown; some compounds called inactive have numbers as strong as hits
ALR H2O2 inh = inhibitors of human sulfhydryl oxidase ALR. 290,000 compounds, 3.8% hits. purified ALR, DTT oxidation, H2O2 HRP-luminol luminescence. inhibition, % (no concentration beside the values);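 active = mean and each replicate at 75% or more; inconclusive = only one of the two met; inactive = neither met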;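 note: stock transfer was 7.5 nL into about 7.5 µL; 0% = neutral wells and 100% = wells with inactivated enzyme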
Target sequence (P55789 whole entry, looked up): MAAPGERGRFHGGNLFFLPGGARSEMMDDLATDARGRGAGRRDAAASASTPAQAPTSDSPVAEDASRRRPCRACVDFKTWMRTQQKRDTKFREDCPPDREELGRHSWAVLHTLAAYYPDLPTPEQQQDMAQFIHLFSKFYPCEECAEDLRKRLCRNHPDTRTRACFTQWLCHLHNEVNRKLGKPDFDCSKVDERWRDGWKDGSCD
AF4-AF9 inh = inhibitors of human MLL-AF4/AF9 interaction; 350,000 compounds, 0.47% hits; P42568; AlphaScreen, biotin-AF4 peptide binding to FLAG-AF9; inhibition, % at 10 µM;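 active = every replicate reaching a set inhibition limit, whatever the replicate mean, cut at about 25% in these data; inconclusive = mean inhibition reaches that limit but some replicates miss it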;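 note: 0% = plate neutral control median and 100% = total signal loss; the record names both 10 and 1 µM as test concentration; the first replicate is given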
Target sequence (P42568 whole entry, looked up): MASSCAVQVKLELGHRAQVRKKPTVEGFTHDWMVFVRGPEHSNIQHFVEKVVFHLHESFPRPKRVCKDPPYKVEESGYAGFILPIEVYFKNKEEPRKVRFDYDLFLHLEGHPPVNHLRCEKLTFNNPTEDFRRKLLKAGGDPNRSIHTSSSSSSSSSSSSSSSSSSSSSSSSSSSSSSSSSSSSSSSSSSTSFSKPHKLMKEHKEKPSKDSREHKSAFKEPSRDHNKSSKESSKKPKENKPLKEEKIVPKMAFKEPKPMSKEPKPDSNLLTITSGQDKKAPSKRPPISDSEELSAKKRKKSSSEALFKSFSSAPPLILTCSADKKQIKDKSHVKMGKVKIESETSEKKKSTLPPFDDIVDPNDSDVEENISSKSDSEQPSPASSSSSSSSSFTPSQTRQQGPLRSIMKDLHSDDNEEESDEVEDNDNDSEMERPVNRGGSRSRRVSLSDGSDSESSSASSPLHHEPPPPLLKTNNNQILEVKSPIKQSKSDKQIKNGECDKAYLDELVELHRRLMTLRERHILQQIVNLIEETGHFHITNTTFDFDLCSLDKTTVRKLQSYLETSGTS
T cruzi inh = blocks replication of Trypanosoma cruzi | T. cruzi beta-gal in NIH3T3, luminescence, 90 h | inhibition, % (concentration not given with the values) | 300,000 compounds, 1.4% hits;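 active = mean inhibition across valid replicates above about 55%, limit read from the data; inconclusive = mean below that limit but half or more replicates reach it; inactive = mean below it, under half of replicates reach it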;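 note: signal also drops with host cell toxicity which is not excluded here; 0% = plate median of DMSO wells and 100% = zero luminescence signal; higher percent means less beta-gal luminescence so fewer parasites; stock transfer was 50 nL into about 50 µL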
Calb FLC = C. albicans growth modulation with fluconazole | C. albicans CaCi-2 (fluconazole-resistant clinical isolate) + fluconazole, Alamar Blue growth, 48 h | growth inhibition, % (no concentration beside the values) | 300,000 compounds, 0.57% hits;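 active = most replicates above 75%; inconclusive = exactly half above 75%; inactive = most below 75%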;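 note: all wells also contain fluconazole at 8 µg/ml as a sub-toxic cotreatment; 0% = median of DMSO wells and 100% = median of geldanamycin control wells; wells of about 8 µL received 7.5 nL stock; the first replicate is given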
Ecoli rRNA inh OD600 = also measured in Ecoli rRNA inh; calls as there; OD600 change, %; measured here: OD600 growth;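 optical density of the mix in the first replicate; 0 = DMSO median and -100 = no signal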
Ecoli rRNA inh RFP = further read-out of Ecoli rRNA inh, marked with its call; RFP signal change, %; measured here: RFP humanized mutant strains;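 first replicate; 0 = DMSO median and -100 = no signal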
The depositor's hits bear a star; & = joins results of further samples. This is a subset; count on the stated rates, not on these rows.

Screening COc1ccccc1-n1c(-c2ccoc2)nc2ccccc2c1=O returned Calb FLC 1.
COc1ccc2c(c1OC)C(=O)OC2c1c(O)n(Cc2ccc(F)cc2)c(=O)[nH]c1=O (stereo not given) was read as RanGTP-Imp inh -2.2, T cruzi inh -28 and Calb FLC -5.
For c1ccc(C2=NP(N3CCOCC3)(N3CCOCC3)=NC(N3CCOCC3)=N2)cc1 the results were RanGTP-Imp inh 5.6, T cruzi inh -4 and Calb FLC 0.
CN1CCC(N(C)c2nc(-c3ccc([N+](=O)[O-])cc3)nc3ccccc23)CC1 was read as RanGTP-Imp inh 1.7, T cruzi inh 37 and Calb FLC -1.
For CCCCCCC(N)CC(=O)O (stereo not given) the results were RanGTP-Imp inh 1.8, T cruzi inh -4 and Calb FLC 14.
For CN1/C(=C\C=C\C2=[N+](C)c3ccc4ccccc4c3C2(C)C)C(C)(C)c2ccccc21 the results were Beta apoptosis 100*.
O=C1C=Cc2ccccc2C1=O was read as Beta apoptosis -2, RanGTP-Imp inh 2.5 and T cruzi inh 10.
For O=C(Nc1cccc2ccccc12)c1nn(C23CC4CC(CC(C4)C2)C3)cc1Br the results were Beta apoptosis 1, RanGTP-Imp inh 2.3 and Calb FLC -12.
`O=C(c1ccc(CNS(=O)(=O)c2ccccc2)cc1)N1CCC2(CC1)OCCO2` gave ALR H2O2 inh 6.
For CCOC(=O)C(O)(c1ccc(N(CC)C(=O)OC)cc1)C(F)(F)F (stereo not given) the results were ALR H2O2 inh -2, T cruzi inh -11 and Calb FLC -24.
For COc1ccc2nc(-c3ccc(CN4CCC(n5c(=O)[nH]c6cc(Cl)ccc65)CC4)cc3)c(-c3ccccc3)nc2c1 the results were FGF22 binding inactive.
Screening O=C(NC[C@@H]1CC[C@H]2NC[C@H]2O1)C1CCCC1 returned AF4-AF9 inh -2.7.
For CN1C[C@@H]2N[C@H](C1)C2c1ccc(Br)cc1 (stereo not given in full) the results were Ecoli rRNA inh 1, Ecoli rRNA inh OD600 -3 and Ecoli rRNA inh RFP -1.6.
`CC(C)CC#Cc1ccc([C@@H]2[C@@H](CO)N3CCCCN(C(=O)Cc4ccccn4)C[C@H]23)cc1` gave Ecoli rRNA inh -50, Ecoli rRNA inh OD600 -69 and Ecoli rRNA inh RFP -9.2.
`OC[C@@H]1Nc2ccc(C#Cc3cccnc3)cc2[C@@H]2NCC[C@H]12` gave Ecoli rRNA inh 5, Ecoli rRNA inh OD600 24 and Ecoli rRNA inh RFP -0.8.
For CS(=O)(=O)N1CC2NC(C1)C2c1ccc(Br)cc1 (stereo not given) the results were Ecoli rRNA inh -3, Ecoli rRNA inh OD600 1 and Ecoli rRNA inh RFP -0.7.
O=C(O)[C@@H]1[C@@H](CO)[C@@H]2Cn3c(ccc(-c4ccncc4)c3=O)[C@H]1N2C(=O)C1CC1 was read as Ecoli rRNA inh 4, Ecoli rRNA inh OD600 16 and Ecoli rRNA inh RFP -3.6.
Screening C=CCN1[C@@H]2CN(S(C)(=O)=O)C[C@H]1C2c1ccccc1 (stereo not given in full) returned Ecoli rRNA inh -1&-1, Ecoli rRNA inh OD600 4&4 and Ecoli rRNA inh RFP 1.2&1.7.
`CC(=O)N1C[C@@H]2C(c3ccccc3)[C@H](C1)N2C` (stereo not given in full) gave Ecoli rRNA inh 1&4, Ecoli rRNA inh OD600 6&0 and Ecoli rRNA inh RFP -0.3&-1.6.
`CC(C)[C@H]1C(=O)N2CCC[C@H]2[C@]2(O)O[C@](NC(=O)[C@@H]3C=C4c5cccc6[nH]cc(c56)C[C@H]4N(C)C3)(C(C)C)C(=O)N12` gave Beta apoptosis 4 and ALR H2O2 inh -23.
`CCn1c(C(=O)N2CCC(C(=O)N3CCC4(CC3)OCCO4)CC2)cc2sccc21` gave Beta apoptosis -5 and ALR H2O2 inh 1.
For CC(C)(O)/C=C/C(=O)[C@](C)(O)C1[C@H](O)C[C@@]2(C)C3CC=C4C(C[C@H](O)[C@@H](O)C4(C)C)[C@]3(C)C(=O)C[C@]12C (stereo not given in full) the results were Beta apoptosis 52 and ALR H2O2 inh 4.
Screening NC(=O)CSP(=O)(c1ccccc1)c1ccccc1 returned Beta apoptosis -1 and ALR H2O2 inh 6.
COC(=O)c1ccccc1-n1c(C)nc2ccccc2c1=O was read as Beta apoptosis -6 and ALR H2O2 inh 3.
`C=C(C=O)CC1CC(O)[C@]2(C)OC3C[C@@H]4OC5C[C@]6(C)O[C@]7(C)CCC8OC9C[C@]%10(C)OC(/C(C)=C\CO)C(O)CC%10OC9CC(C)C8OC7CC6O[C@]5(C)C/C=C\C4OC3CC2O1` (stereo not given in full) gave Beta apoptosis 4 and ALR H2O2 inh -3.
O=C1c2ccccc2C(=O)N1Cc1nc2ccccc2c(=O)n1-c1ccccn1 was read as Beta apoptosis -1 and ALR H2O2 inh -5.
Screening O=C(C1CCCN(S(=O)(=O)c2cccc3nsnc23)C1)N1CCC2(CC1)OCCO2 (stereo not given) returned Beta apoptosis -7 and ALR H2O2 inh -4.
COC(=O)c1c(N)n(Cc2ccc(OC)cc2)c2nc3ccccc3nc12 was read as Beta apoptosis -9 and ALR H2O2 inh -16.
`COC(=O)C1=C(c2ccc(F)cc2F)C[C@@H]2CC[C@H]1N2C(=O)NCC1CC1` gave Beta apoptosis -4 and ALR H2O2 inh 0.
`COC(=O)C1=C(c2ccc(Cl)c(C(F)(F)F)c2)C[C@@H]2CC[C@H]1N2C(=O)NCCOc1ccccc1` gave Beta apoptosis -2 and ALR H2O2 inh 2.
COC(=O)C1=C(c2ccc(F)cc2F)C[C@@H]2CC[C@H]1N2C(=O)NC1CCCCC1 was read as Beta apoptosis -8 and ALR H2O2 inh 1.
c1ccc(C2OCCN3CCCCC23)cc1 (stereo not given) was read as Beta apoptosis 0 and ALR H2O2 inh -5.
`O=P(C(=Nc1ccc(Cl)cc1)N1CCOCC1)(N1CCOCC1)N1CCOCC1` gave Beta apoptosis -1 and ALR H2O2 inh -24.
Screening COc1cccc(-n2nc(C(=O)N3CCC4(CC3)OCCO4)c3ccccc3c2=O)c1 returned Beta apoptosis -1 and ALR H2O2 inh 94*.
COc1ccc(C(=O)CC2C(=O)N(C)C(=O)N(C)C2=O)cc1 was read as Beta apoptosis -7, ALR H2O2 inh 30 and Calb FLC 9.
O=C(Cc1cccnc1)N1CCCCN2[C@@H](CO)[C@@H](c3ccc(C#CC4CC4)cc3)[C@@H]2C1 was read as FGF22 binding inactive and AF4-AF9 inh 1.7.
O=c1ccc2cc(O[C@@H]3O[C@H](CO)[C@@H](O)[C@H](O)[C@H]3O)c(O)cc2o1 was read as FGF22 binding inactive and AF4-AF9 inh -4.1.
For C=CC1CN2CCC1C[C@@H]2CO (stereo not given in full) the results were FGF22 binding inactive and AF4-AF9 inh -2.4.
CC1CN1c1cc2c(c3c1ccn3C)C1CCC2C1 (stereo not given) was read as FGF22 binding inactive and AF4-AF9 inh 40*.
For COc1ccc(-n2nnnc2C(c2cccc(OC)c2OC)N2CCC(n3c(=O)[nH]c4ccccc43)CC2)cc1 (stereo not given) the results were FGF22 binding inactive and AF4-AF9 inh 3.9.

Ordered by length of the SMILES (lowest first): some entries from above
For CCOC(=O)C(O)(c1ccc(N(CC)C(=O)OC)cc1)C(F)(F)F (stereo not given) the results were ALR H2O2 inh -2, T cruzi inh -11 and Calb FLC -24.
`OC[C@@H]1Nc2ccc(C#Cc3cccnc3)cc2[C@@H]2NCC[C@H]12` gave Ecoli rRNA inh 5, Ecoli rRNA inh OD600 24 and Ecoli rRNA inh RFP -0.8.
`COC(=O)C1=C(c2ccc(F)cc2F)C[C@@H]2CC[C@H]1N2C(=O)NCC1CC1` gave Beta apoptosis -4 and ALR H2O2 inh 0.

New compounds follow
For OC1CN2CCC(O)C2C(O)C1O (stereo not given) the results were FGF22 binding inactive and AF4-AF9 inh -3.6.
For CC1=C2C[C@H]3[C@@H](CC=C4C[C@@H](O)CC[C@@]43C)[C@@H]2CC[C@]12O[C@@H]1C[C@H](C)CN[C@@H]1C2C (stereo not given in full) the results were FGF22 binding inactive and AF4-AF9 inh -0.9.
Screening COC(=O)C1=COC(C)C2CN3CCc4c([nH]c5cc(OC)ccc45)C3CC12 (stereo not given) returned FGF22 binding inactive and AF4-AF9 inh 15.
Screening c1cc2c(cc1C1OCC3C(c4ccc5c(c4)OCO5)OCC13)OCO2 (stereo not given) returned FGF22 binding inactive and AF4-AF9 inh -2.9.
O=C(Cc1cccnc1)N1CCCCN2[C@H](CO)[C@@H](c3ccc(C#CC4CC4)cc3)[C@H]2C1 was read as FGF22 binding inactive and AF4-AF9 inh 2.4.
`NNCc1ccccc1` gave FGF22 binding inactive and AF4-AF9 inh -1.3&-4.4.
N[C@H](CO)Cc1ccccc1 was read as FGF22 binding inactive and AF4-AF9 inh -0.9.
Screening CC[C@H]1C=C(C(=O)N[C@@]2(C(=O)O)C[C@H]2CC)[C@H]2CCC(=O)[C@H]2C1 returned FGF22 binding inactive and AF4-AF9 inh -2.6.
OC1CN2CCCC(O)C2C1O (stereo not given) was read as FGF22 binding inactive and AF4-AF9 inh -0.8.
Screening CC[C@@H](CO)NC(=O)[C@@H]1C=C2c3cccc4[nH]cc(c34)C[C@H]2N(C)C1 returned FGF22 binding inactive and AF4-AF9 inh inconclusive.
`CN(C)[C@@H]1C(=O)C(C(N)=O)=C(O)[C@@]2(O)C(=O)C3=C(O)c4c(O)ccc(Cl)c4[C@@](C)(O)C3C[C@@H]12` (stereo not given in full) gave FGF22 binding inactive and AF4-AF9 inh 2.1.
`Nc1ccc(Cc2ccc(N)cc2)cc1` gave FGF22 binding inactive and AF4-AF9 inh -1.9.
Screening CC12CCC3C(CCC4(O)CC(O)CCC34C=NO)C1(O)CCC2C1=COC(=O)C1 (stereo not given) returned FGF22 binding inactive and AF4-AF9 inh -1.4.
CC[C@H](C)[C@@H](C(=O)N1CCCC1c1nccs1)N(C)C(=O)[C@H](CC(C)C)N(C)C(=O)[C@H](Cc1ccc(OC)cc1)N(C)C(=O)/C=C(\C)OC (stereo not given in full) was read as FGF22 binding inactive and AF4-AF9 inh -0.1.
C[C@@H]1C(=O)O[C@H]2[C@H](O)[C@]34[C@@H]5OC(=O)[C@]3(OC3OC(=O)[C@H](O)C34[C@H](C(C)(C)C)[C@@H]5O)[C@@]12O (stereo not given in full) was read as FGF22 binding inactive and AF4-AF9 inh -3.4.
COc1ccc(NC(=S)N2Cc3ccccc3-n3nncc3C2)c(OC)c1 was read as FGF22 binding inactive and AF4-AF9 inh -7.4.
`O=C1NC(=O)C(C2CCOC2=O)N1` (stereo not given) gave FGF22 binding inactive and AF4-AF9 inh -2.3.
`CCOC(=O)[C@@H]1[C@@H]2NC(=O)N[C@@]1(C)Oc1ccccc12` gave FGF22 binding inactive and AF4-AF9 inh -1.2&-3.9.
For CC(=O)OC1C(O)C(C)OC(OC2C(OC(=O)C3CCC4C(C3)OC3(CC(OC(=O)/C=C/c5ccccc5)C(C)CO3)C43CO3)OC(C)C(O)C2OC(C)=O)C1O (stereo not given) the results were FGF22 binding inactive and AF4-AF9 inh -0.2.
`COC(=O)C1(F)C(=O)NC(=O)NC1O` (stereo not given) gave FGF22 binding inactive and AF4-AF9 inh -4.4.
